gsp ag = gsp mutant agonism | gsp mutant cells, cAMP HTRF, 30 min; control for the full effect not named in the record | Potency, µM (top dose mostly 76.9 µM), without a hit: at the highest dose activation (cAMP increase), hits mostly activators | actives 0.13% (n = 340,000); active = well fitted activation curve with a large enough effect; inconclusive = small, poorly fitted or top-dose-only effect, or another doubt; inactive = no such curve, though single readings can be large or run the other way; cell line not stated here;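 note: phosphodiesterase inhibitor Ro 20-1724 added with compounds to block cAMP breakdown; potency is the fitted concentration of half-maximal effect; nearly all actives have a fitted effect of over 60% in size; about a fifth of the inactives were tested at one dose only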
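Cells in DMEM/10% FBS with G418 were pretreated with compounds in DMSO plus […] (300 uM stock) for 30 min at 37C. cAMP was measured by HTRF (cAMP-d2 plus anti-cAMP antibody-K) after 30 min at room temperature.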
D2 PAM = potentiates the human D2 dopamine receptor allosterically; P14416; DiscoveRx D2 beta-arrestin cells, luminescence, 90 min; 100% = 57 uM dopamine signal; potentiation, % (test concentration not listed); actives 0.23% (n = 360,000); AID 624464; active = potentiation of 50% or more; inconclusive = 30% to 50%; inactive = 30% or less;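 note: compound concentration not given in the record; tested on top of an EC20 dose of dopamine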
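PathHunter beta-arrestin assay in DiscoveRx D2 cells. Compounds were added with an EC20 of dopamine (50 nM final) for 90 min at 37 deg C. Luminescence was read 1 h after detection reagent, with 57 uM dopamine as the EC100 control.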
Sfp inh = Sfp phosphopantetheinyl transferase inhibition. AID 1490. Q9F4F7. actives 3.5% (n = 310,000). Biochemical Sfp PPTase activity, qHTS. Potency, µM, without a hit: max response, negative = inhibition, actives largely listed as inhibitors; active = well fitted inhibition curve with a large enough effect; inconclusive = small, poorly fitted or top-dose-only effect, or another doubt; inactive = no such curve, though single readings can be large or run the other way;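 note: the enzyme is Sfp with the accession as filed and its product quenches rhodamine fluorescence; potency is the fitted concentration of half-maximal effect; 0% = enzyme reaction without inhibitor and -100% = no enzyme wells; top concentration of the series not given in the record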
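After 15 min at room temperature with compound, 15 nM Sfp received 5 uM rhodamine-CoA plus 12.5 uM BHQ-2-ybbR (50 mM Hepes pH 7.6, 10 mM MgCl2). Rate came from the fluorescence difference over 30 min, ex 525/em 598 nm.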
ClpP mod = qHTS Assay for Activators of ClpP; ATP-dependent Clp protease proteolytic subunit (Bacillus subtilis (strain 168)), P80244; purified B. subtilis ClpP, FRET peptide cleavage, 20 min; Potency, µM (highest dose often 57.5 µM), for inactives: at the highest dose activity change, negative = active; actives 1.9% (n = 340,000); active = well fitted falling curve with a large enough effect; inconclusive = small, poorly fitted or top-dose-only effect; inactive = no such curve, though single readings can be large or run the other way; note: potency is the fitted concentration of half-maximal effect; the source files actives as falling curves though it sought activators and does not explain the sign; nearly all actives have a fitted effect of over 65% in size; many hits overshoot -100%
Target sequence (P80244 whole entry, looked up): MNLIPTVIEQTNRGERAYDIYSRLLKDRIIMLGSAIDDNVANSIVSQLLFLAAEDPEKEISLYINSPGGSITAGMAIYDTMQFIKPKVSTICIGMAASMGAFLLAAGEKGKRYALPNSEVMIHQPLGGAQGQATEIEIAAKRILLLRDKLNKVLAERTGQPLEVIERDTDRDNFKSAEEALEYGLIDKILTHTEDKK
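FRET quenching reversal measured ClpP activation: 10 microg/mL B. subtilis ClpP at pH 8 with the FRET-FV decapeptide, read at 430 nm after 320 nm excitation. The 20-min minus 0-min signal was scaled between DMSO/no-enzyme wells and ADEP (5.8 microM final).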
gsp antag = gsp mutant antagonism. gsp-mutant cells, cAMP HTRF, 30 min; control for the full effect not named in the record. Potency, µM (doses to about 76.9 µM), without a hit: top-dose activity change, negative = inhibition, actives largely listed as inhibitors. actives 0.4% (n = 340,000); active = falling curve of any shape with a large fitted effect; inconclusive = falling curve, mostly with a smaller effect; inactive = flat or rising curve; cell line not stated here;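 note: intracellular cAMP measured with PDE inhibitor Ro 20-1724 present during compound exposure; potency is the fitted concentration of half-maximal effect; % is set by controls: 0 for no effect and ±100 for the full control effect; nearly all actives have a fitted effect of over 65% in size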
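HTRF cAMP measurement after 30 min RT detection following 30 min, 37C compound treatment alongside […] (added as 300 uM solution) in G418-selected cells seeded at 2000/well and grown 16–24 h.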
TRPV1 potentiator = human TRPV1 potentiation; Q8NER1; TRPV1-expressing cells, Fluo-8 calcium influx, capsaicin EC20 potentiation; host cell line not named in the record; control for the full effect not named in the record; potentiation, % at 8.33 µM; actives 0.02% (n = 320,000); AID 540277; active means potentiation above 80%; inconclusive means 30% to 80%; inactive means below 30%; note: 0% is about no effect
Target sequence (Q8NER1 whole entry, looked up): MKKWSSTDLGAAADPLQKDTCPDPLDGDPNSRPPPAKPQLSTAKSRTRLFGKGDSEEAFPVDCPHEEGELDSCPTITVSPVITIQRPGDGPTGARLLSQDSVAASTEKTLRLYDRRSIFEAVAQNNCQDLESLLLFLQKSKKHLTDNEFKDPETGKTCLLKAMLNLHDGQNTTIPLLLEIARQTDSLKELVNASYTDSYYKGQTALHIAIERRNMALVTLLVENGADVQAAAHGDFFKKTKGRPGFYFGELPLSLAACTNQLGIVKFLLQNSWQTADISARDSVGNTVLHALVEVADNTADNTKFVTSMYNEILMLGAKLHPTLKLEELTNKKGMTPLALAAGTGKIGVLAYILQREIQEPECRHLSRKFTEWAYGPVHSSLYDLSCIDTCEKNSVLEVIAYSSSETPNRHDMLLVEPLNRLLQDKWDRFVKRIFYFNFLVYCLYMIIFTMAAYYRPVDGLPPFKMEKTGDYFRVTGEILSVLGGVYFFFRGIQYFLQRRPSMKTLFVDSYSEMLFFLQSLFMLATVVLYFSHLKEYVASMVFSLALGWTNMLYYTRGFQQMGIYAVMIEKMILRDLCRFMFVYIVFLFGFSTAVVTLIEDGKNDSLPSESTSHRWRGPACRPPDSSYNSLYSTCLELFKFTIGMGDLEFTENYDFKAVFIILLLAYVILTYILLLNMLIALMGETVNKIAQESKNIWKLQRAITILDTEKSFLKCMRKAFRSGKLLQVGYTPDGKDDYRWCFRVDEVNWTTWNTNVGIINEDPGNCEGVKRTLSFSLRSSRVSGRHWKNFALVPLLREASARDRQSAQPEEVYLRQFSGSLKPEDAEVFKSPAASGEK
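TRPV1-expressing cells were cultured overnight at 35.5C and loaded with Fluo-8 calcium dye for 40 to 90 min at room temperature. After a 10 s baseline, compound was added and calcium influx was read kinetically for 3 min (ex 480/em 520 nm).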
Menin MLL FP FL = inhibitors of human menin-MLL interaction, wild-type MLL peptide | Fluorescence polarization, fluorescein-MLL peptide displacement from menin | FP activity change, % at 61.4 µM | 290,000 tested, under 10 active | AID 1766; inconclusive = falling polarisation curve, or a change in total fluorescence; inactive = total fluorescence flat and polarisation flat or rising; no compound was filed as active; the % refers to the polarisation; negative = inhibition;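 note: % of control where 0% means no effect; inhibitors lower the polarisation; unlabelled MLL peptide was the positive control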
* = called active by the depositor; ? = inconclusive; / = not tested or not shown; [ ] = another dose, or the depositor's remark.

Order of results – gsp ag	D2 PAM	Sfp inh	ClpP mod	gsp antag	TRPV1 potentiator	Menin MLL FP FL
- CCCC(=O)NCCc1ccc(S(N)(=O)=O)cc1
    -18%	-2	7%	-1.3%	13%	12	1.8
- Nc1ccc2c(c1)nc(Cc1ccccc1)n2CCO
    10%	-5	10%	-23%	-4%	5	-1.2
- CN(c1ccccc1)c1nccc(=O)[nH]1
    -1%[15.4 µM]	-3	/	-2.2%	3%	/	/
- Cc1ccc(NC(=O)CCC(=O)NNS(=O)(=O)c2ccccc2)c(C)c1
    -11%	12	12%	-3.9%	6%	22	0.2
- CC(C)(C)OC(=O)N1CCC(Cc2cc(-c3ccc(Cl)cc3)no2)(C(=O)O)CC1
    -20%	3	8%	0.2%	-9%	28	-2.5
- CC1=NN(C(=O)c2ccccc2-n2cccc2)C(O)(C(F)(F)F)C1 (stereo not given)
    3%	-15	11%	1.3%	11%	-1	-0.9
- O=C(CN(c1ccc(F)cc1)S(=O)(=O)c1ccccc1)NCCSC1CCCCC1
    5%[15.4 µM]	3	12%	0.4%	-14%	-22	1.9
- Cc1nn(CCOc2ccccc2)c(=O)n1-c1ccccc1
    36%	-9	18%	0.8%	15%	-4	3.8
- O=C(NC1CCCCCC1)c1cc(S(=O)(=O)N2CCOCC2)ccc1N1CCCCC1
    6%	-15	2%	-2.3%	-10%	-22	5.8
- CC(=O)N1CCN(C(=S)Nc2ccc(Oc3ccccc3)cc2)CC1
    6%	-4	5%	/	8%	-13	-2.9
- CC(C)(C)c1cc(NC(=O)COC(=O)c2ccc3c(=O)n4c(nc3c2)CCC4)n(-c2ccccc2)n1
    -15%	3	10%	-2.1%	3%	-5	0.1
- CN(C)N=Nc1ccc2nc[nH]c2c1
    6%	-10	?	-2.4%	-1%	5	3.0
- CC1=C(C(=O)N2CCCC(N3CCN(c4cccc(C(F)(F)F)c4)CC3)C2)OCCO1 (stereo not given)
    16%	-26	11%	-8.2%	-16%	-6	/
- N#CC1(C#N)C(c2ccccc2)OC23CCCCCC2C1(C#N)C(=N)O3 (stereo not given)
    1%	-11	6%	32µM*	2%	1	-16
- O=C(COC(=O)c1cc(S(=O)(=O)N2CCOCC2)ccc1Cl)Nc1ccccc1Cl
    27%	-4	/	-25%	?	-10	/
- CC(=O)Nc1cccc(Oc2ccc3c(c2)C(=O)NC3=O)c1
    2%[15.4 µM]	-8	12%	-2.9%	-9%	-8	2.8
- CCCN(CC(=O)Nc1ccccc1OC)C(=O)c1cccc(S(=O)(=O)NCc2ccccc2)c1
    -28%	-19	/	-1.3%	-16%	-3	/
- Cc1cc(NS(=O)(=O)c2ccc(OCCNS(C)(=O)=O)cc2)no1
    -9%	-9	19%	-2.0%	-2%	2	2.2
- CC1=C/C(=N\OC(=O)/C=C/c2ccccc2)C(C)=CC1=O
    -3%	14	11%	-3.0%	12%	1	2.2
- CC1CCC(C(C)C)C(OP(=O)(c2ccc(N(C)C)cc2)C(O)c2cccnc2)C1 (stereo not given)
    /	/	15%	/	/	-1	7.0

Full records as entered above.
O=C(NC1CCCCCC1)c1cc(S(=O)(=O)N2CCOCC2)ccc1N1CCCCC1 across the screens: gsp ag = 6%; D2 PAM = -15; Sfp inh = 2%; ClpP mod = -2.3%; gsp antag = -10%; TRPV1 potentiator = -22; Menin MLL FP FL = 5.8
O=C(COC(=O)c1cc(S(=O)(=O)N2CCOCC2)ccc1Cl)Nc1ccccc1Cl across the screens: gsp ag = 27%; D2 PAM = -4; Sfp inh = /; ClpP mod = -25%; gsp antag = ?; TRPV1 potentiator = -10; Menin MLL FP FL = /

The list continues:
Order of results – gsp ag	D2 PAM	Sfp inh	ClpP mod	gsp antag	TRPV1 potentiator	Menin MLL FP FL
- CN(C)CCCNc1c(C(=O)O)cnc2c1cnn2C
    /	/	14%	/	/	-5	1.5
- COC(=O)c1ccc(COc2cccc3c2CCN(Cc2ccccc2)C3=O)o1
    -3%	-17	-17%	-2.9%	1%	-16	2.0
- CC(C)Cn1c(N)c(C(=O)NCc2cccs2)c2nc3ccccc3nc21
    21%	-18	9%	7.1µM*	-5%	4	8.0
- CCOC(=O)N1CCN(Cc2cn[nH]c2-c2cccc3ccccc23)CC1
    2%	-12	16%	-0.1%	4%	-3	-1.0
- O=C(Nc1ccccc1-c1nnn(CC(=O)N2CCOCC2)n1)c1ccccc1F
    ?	0	17%	-0.1%	-6%	-4	-0.4
- COc1ccccc1CNC(=O)CS(=O)(=O)Cc1ccccc1
    ?	-5	21%	2.4%	0%	-8	/
- O=C(O)CCC(=O)CCC(=O)c1ccc(Cl)cc1
    -18%	-4	?	-0.1%	-8%	3	2.7
- COc1ccc(S(=O)(=O)N(CCc2ccccc2)CC(=O)O)cc1C
    -26%	-8	-4%	-2.8%	1%	20	2.0
- Cc1ccc(S(=O)(=O)Nc2ccc(-c3nnc(SCc4ccccc4Cl)o3)cc2)cc1
    4%	6	9%	-3.6%	?	-3	3.8
- CC(=O)c1c(C)[nH]c(C(=O)Nc2cccc(S(=O)(=O)N(C)C)c2)c1C
    -11%[15.4 µM]	-19	-9%	/	-1%	7	2.3
- Cn1cc(CCC(=O)N2CCCC(C(=O)c3ccc(C(C)(C)C)cc3)C2)cn1 (stereo not given)
    -12%[15.4 µM]	1	-1%	/	-12%	0	-3.8
- O=C(NNC(=O)C1CC1)c1cc(=O)[nH]c2ccccc12
    2%[15.4 µM]	-11	/	-2.4%	5%	/	/
- N/C(=N\OC(=O)CSc1ccccc1)c1ccccn1
    10%	-23	4%	-2.0%	12%	-10	/
- Cc1ccc(NC(=O)NCCc2ccc(S(N)(=O)=O)cc2)cc1
    -82%[inhibitor]	-13	12%	-2.5%	-4%	8	0.1
- CC(C)Cn1c(SCC(=O)N2CC(=O)Nc3ccccc32)nc2ccccc21
    -41%	-22	5%	-0.7%	17%	-9	5.6
- CCOC(=O)CC1C(=O)NCCN1C(=O)c1cccc(OC)c1 (stereo not given)
    0%	-12	2%	0.2%	6%	15	5.3
- c1ccc2c(c1)ncn2CCN1CCCCC1
    1%	-12	10%	-1.0%	11%	-10	-6.4
- Cc1cc(C)cc(NC(=O)c2cc3c(=O)n4ccccc4nc3s2)c1
    9%[15.4 µM]	5	-1%	/	3%	6	1.9
- COc1cccc(NC(=O)C2CCCN(S(=O)(=O)c3cccc4cccnc34)C2)c1 (stereo not given)
    ?	0	16%	0.3%	-8%	16	4.2
- CCCCNC(=O)CCCn1c(=O)[nH]c2ccc(Br)cc2c1=O
    -16%	-10	27%	-3.6%	8%	6	3.7
- CC1CCC(NC(=O)c2ccc(NC3=NC4CS(=O)(=O)CC4S3)cc2)CC1 (stereo not given)
    1%	-5	8%	0.8%	-4%	7	/
- COc1ccc(-c2csc(C)n2)cc1Br
    18%	-1	11%	/	3%	1	3.9
- Cc1cccc(C)c1NC(=O)C1c2cccc[n+]2CC(=O)N1Cc1cccs1 (stereo not given)
    -53%[inhibitor]	-9	13%	-0.4%	0%	6	-8.1
- CCOc1ccccc1-c1nnc(CS(=O)(=O)c2ccccc2)o1
    -36%[inhibitor]	-3	4%	/	-3%	-8	-8.4
- O=C(O)CCNS(=O)(=O)c1ccc2c(c1)Cc1ccccc1-2
    -22%	-3	17%	-10%	-2%	?	0.1
- O=C(NCCc1ccccc1)C1CCC(CNc2nc(=S)[nH]c3ccccc23)CC1 (stereo not given)
    11%[15.4 µM]	-9	9%	0.8%	-7%	1	-1.8
- COc1cccc(-n2c(C)nnc2SCC(=O)Nc2ccccc2N2CCOCC2)c1
    -16%	2	9%	-2.5%	-2%	-11	-2.2
- CC(C)Cc1nn2c(=O)cc(COc3ccc(NC(=O)c4ccco4)cc3)nc2s1
    ?	-8	19%	-7.9%	3%	16	/
- CCCC(=O)NC(C)c1nc(-c2ccc(C)cc2)no1 (stereo not given)
    -82%[inhibitor]	-5	/	0.0%	-7%	/	/
- CC(=O)c1cccc(NS(C)(=O)=O)c1
    3%	-2	14%	1.2%	7%	15	-2.5
- C=CCN1C(=O)C(=O)N(CC(=O)c2ccc3c(c2)CCCC3)C1=O
    ?	-1	/	3.2%	13%	-1	/
- O=c1ccc(-c2ccc(S(=O)(=O)Nc3ccc(F)cc3)o2)n[nH]1
    28%	-1	10%	0.2%	?	5	1.0
- CC(=O)OCC1(O)CC23CCC4c5ccoc5CCC4(C)C2CCC1C3 (stereo not given)
    /	-19	/	0.3%	-6%	/	/
- COC(=O)c1ccc(C(=O)OC)c(NC(=S)N2CCC(C(N)=O)CC2)c1
    8%	7	12%	/	-1%	1	-13
- O=C1[C@@H]2[C@H](C(=O)N1Cc1cccnc1)[C@H]1C=C[C@@H]2C1
    -1%	-4	8%	4.0%	2%	7	-3.3
- CC(O)Cn1c(=O)c2c(nc(Br)n2Cc2ccccc2)n(C)c1=O (stereo not given)
    3%	-31	-10%	1.9%	-15%	8	0.9
- CC(C)(OC(=O)c1cccs1)c1cc2ccccc2c(=O)o1
    -16%	-15	/	-0.2%	0%	2	/
- Cc1cccc(Nc2nc(N)c([N+](=O)[O-])c(N3CCOCC3)n2)c1
    16%[15.4 µM]	-3	0%	-0.7%	8%	0	2.0
- Cc1cc2cc(CNC(=O)C3CC3)ccc2n1C
    10%	-1	6%	-20%	3%	6	3.7
- CC1=C(C(=O)Nc2ccccn2)C(c2ccc(Cl)cc2)NC(=S)N1 (stereo not given)
    2%[15.4 µM]	-1	11%	/	0%	-7	1.2
- O=C(COC(=O)c1ccc(S(=O)(=O)N2CCOCC2)cc1)NCc1cccs1
    8%[15.4 µM]	-5	24%	/	-12%	6	0.5
- CN1C(=O)[C@H](Cc2ccc([N+](=O)[O-])cc2)NC1=S
    -19%	0	-15%	/	6%	22	0.5
- COc1cc(S(=O)(=O)NCCN2CCOCC2)ccc1-n1cnnn1
    -86%[inhibitor]	-20	?	-2.2%	11%	15	0.2
- Cn1c(=O)[nH]c(=O)c2c1nc(Br)n2CCSc1ncccn1
    27%	-8	?	0.7%	0%	-1	-2.4
- CCOC(=O)N1CCN(S(=O)(=O)c2ccc(OCC)cc2)CC1
    -14%	13	11%	1.0%	-4%	1	-0.8
- Cc1ccc(NS(=O)(=O)c2cccc(C(=O)Nc3cccnc3)c2)c(C)c1
    -11%[15.4 µM]	-2	/	-1.2%	-10%	/	/
